Prx2 Sm inh: inhibitors of Schistosoma mansoni peroxiredoxin 2; S. mansoni Prx2 activity coupled to TGR/GSH (TGR is thioredoxin glutathione reductase), NADPH fluorescence loss, qHTS; some inactives read as strong as hits; Potency, µM; actives 0.07% (n = 65,000); AID 448; active means full or partial inhibition curve with a strong effect at the top dose; inconclusive means weaker partial or single-point curve; inactive means no accepted curve; further: series up to 57 µM; many of its hits are not listed in these tables
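Prx2 activity was followed as the loss of NADPH fluorescence (ex 365/em 450 nm), read every 30 sec for 8 min after H2O2 start. The enzyme mix (50 nM Prx2, 25 nM TGR, GSH, NADPH; pH 7.4 phosphate buffer) was incubated with compound for 15 min at room temperature first.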
LT uptake inh: blocks cellular internalization of anthrax lethal toxin | Cells, anthrax lethal toxin internalization, FRET ratio (460/530) | Potency, µM (doses to about 40 µM), for inactives: top-dose activity change, negative = inhibition, hits mostly inhibitors | actives 0.67% (n = 70,000) | AID 912; active = well fitted falling ratio curve with the 530 nm signal flat; inconclusive = other ratio curves, or a change in one channel alone; inactive = flat curves in the ratio and both channels; the % refers to the ratio; further: on the % scale 0 is the no-effect control and ±100 the full control effect; nearly all actives have a fitted effect of over 50% in size; tested in ME-180 cells; beta-lactamase reporter
* hit, by the source's call; ? = inconclusive; / = no result given; & = joins results of further samples; [ ] = another dose, or the depositor's remark. Potency means the concentration at half of the fitted maximal effect. The list is partial; rates above refer to the full screens.

The line under a structure holds: Prx2 Sm inh	LT uptake inh
COc1ccc(-c2noc(-c3ccccc3-c3ccccc3)n2)cc1OC
  >57	?
CCN1CCN(c2nc3c(c(=O)[nH]2)CCCC3)CC1
  >57	/
Cn1c([N+](=O)[O-])cnc1COC(N)=O
  >25.6	0.9%[3.58 µM]
CCc1ccc(N(CC(=O)O)S(=O)(=O)c2c(C)noc2C)cc1
  >57	-1.6%
CCC(=O)Nc1sc2c(c1C#N)CC(C)(C)NC2(C)C
  >57	-0.1%
CCOCCCn1c(=S)[nH]c2cc3c(cc2c1=O)OCO3
  >57	/
COCCn1c(SCCN2CCCCC2)nc2ccccc2c1=O
  >57	-8.7%
C=CCn1c(C#N)c(N)sc1=N
  >57	-1.0%
Cc1ccc2[nH]c(C(=O)O)c(NC(=O)CN3CCN(c4cccc(C)c4C)CC3)c2c1
  >57	?
COC(=O)CCCNC(=O)CN1CC(c2ccccc2)CC1=O (centres undefined)
  >57	/
CCc1nccn1S(=O)(=O)c1ccc(Br)cc1Br
  >57	-7.1%
CCCn1c(-c2ccc(F)cc2)nc2c(NCCN3CCOCC3)nc(C)nc21
  /	-2.9%
CCOC(=O)CC(=O)CSc1nc2sc(C)cc2c(=O)n1Cc1ccco1
  >57	3.5%
CC(C)(C)c1cc2c(O)c(c1)Cc1cc(C(C)(C)C)cc(c1O)Cc1cc(C(C)(C)C)cc(c1O)Cc1cc(C(C)(C)C)cc(c1O)Cc1cc(C(C)(C)C)cc(c1O)Cc1cc(C(C)(C)C)cc(c1O)Cc1cc(C(C)(C)C)cc(c1O)Cc1cc(C(C)(C)C)cc(c1O)C2
  >57	-3.9%[8 µM]
Cc1oc(-c2cccc(Cl)c2)nc1CN1CCC(C(=O)NCc2ccco2)CC1
  >57	?
Cc1ccc(C)c(CSc2nnc(-c3cccnc3)n2N)c1
  >57	-11.4%
CCC[C@@H]1C[C@@]1(CCC)[C@@H](NC(=O)Oc1ccccc1)c1ccc(C(=O)OC)cc1
  /	?
CC1CN(CCc2ccccc2)c2nc3c(c(=O)[nH]c(=O)n3C)n2C1 (centres undefined)
  >57	-15.3%
O=C(CCN1C(=O)C2CC=C(Cl)CC2C1=O)NC1CCCCC1 (centres undefined)
  >57	-23.9%
CCc1nnc(NC(=O)CSc2nc3c(c(=O)n2C)SC(C)C3)s1 (centres undefined)
  >57	?
CCOc1cc(C)c(C(C)C)cc1S(=O)(=O)N1CCN(C)CC1
  >57	-2.7%
COc1ccccc1CNC(=O)CN(c1ccc(C)cc1)S(=O)(=O)c1c(C)nn(C)c1C
  >57	0.4%
CCn1c(=O)n(CC(=O)Nc2cccc(OC)c2)c(=O)c2ccccc21
  >57	-13.9%
COCCCNC(=O)COc1cc(C)c(Cl)c(C)c1
  /	-8.9%
COc1ccc(OC)c(Nc2nc(-c3ccc(O)c(O)c3)cs2)c1
  >57	?
COc1cc2c(cc1OC)CN(CC(=O)Nc1cccc(C)c1)CC2
  >57	-12.2%
O=C(NCCCNCCCNC(=O)c1ccccn1)c1ccccn1
  >57	-2.4%
CCCCOC(=O)c1ccccc1N
  /	-14.8%
Cn1c(=O)c2c(ncn2CC(=O)N2CCc3ccccc3C2)n(C)c1=O
  >57	9.0%
O=C(NCC1OCCc2ccccc21)c1ccco1 (centres undefined)
  /	-5.7%
Cn1c(=Nc2ccc(N3CCOCC3)cc2)ccc2ccccc21
  >57	0.0%
CC(=O)OCC1OC(c2ccc3c(c2)OCO3)C=CC1OC(C)=O (centres undefined)
  /	-7.2%[8 µM]
O=C1CCCc2sc3c(c2N1)CCCCC3
  >57	-13.3%
O=C(c1ccco1)N1CCN(S(=O)(=O)c2ccc(C3CCCCC3)cc2)CC1
  >57	8.3%
Cc1nc2ccccc2c2oc(C(=O)N3CCC(N4CCCCC4)CC3)cc12
  >57	?
CCCNS(=O)(=O)c1cc(Br)cc2c1N(C(=O)CC)CC2
  >57	3.6%
O=S(=O)(c1cccc(-c2nnco2)c1)N1CCCC1
  >57	5.3%
Cc1ccc(C)c(S(=O)(=O)N2CCN(CC(=O)Nc3cc(C)on3)CC2)c1
  >57	-2.9%
Cc1nc(NC(=O)C23CCC(C)(C(=O)O2)C3(C)C)sc1C (centres undefined)
  >57	-14.9%
Cn1c(SCC(=O)Nc2ccc(F)cc2F)nnc1-c1cccnc1
  >57	3.1%
CN(C)S(=O)(=O)c1nc(Cl)c2[nH]cnc2n1
  >57	-9.3%[8 µM]
CC(C)(C)C1CCC2(CC1)C(C#N)=C(SCC(=O)NC1CCCCC1)NC(=O)C2C#N (centres undefined)
  >57	-18.8%
CN(C)S(=O)(=O)c1ccc(S(=O)(=O)N2CCN(CCC#N)CC2)cc1
  >57	0.9%
COc1cccc(-c2cc(C(F)(F)F)nc(N3CCC(C)CC3)n2)c1
  >57	-18.1%
Fc1ccc(C2CC(c3ccccc3)n3ncnc3N2)cc1 (centres undefined)
  >57	-29.6%
Clc1ccc(OCc2nnc(SCc3nc4ccccc4[nH]3)n2Cc2ccco2)cc1
  >57	?
C1CSC2(N1)C1CC3CC(C1)CC2C3 (centres undefined)
  >57	-0.7%
CC(C)(C)c1ccc(-c2cc(N)n[nH]2)cc1
  >57	?
COCC(=O)N1CCC2(CCN(Cc3ccccc3OC)CC2)CC1
  >57	12.2%
CC(=O)c1cccc(NC(=O)CN2C(=O)COc3ccc(Cl)cc32)c1
  >57	-4.6%
CCC(C(=O)NCc1ccco1)n1nc(-c2ccc(OC)cc2)ccc1=O (centres undefined)
  >57	7.3%
Cc1ccc(C)n1-c1ccc(C(=O)NCC2CCCO2)cc1 (centres undefined)
  >57	-7.1%
Cc1ccc(S(=O)(=O)N2CCOCC2)cc1C(=O)NC1CCCCC1
  >57	9.9%
O=C(CSc1nnnn1C1CCCCC1)Nc1ccc2c(c1)OCO2
  >57	2.6%
COC(=O)c1sc(NC(=O)CSc2nc3cccnc3n2C2CCCCC2)nc1C
  >57	-6.4%
CN1CCN(C(=O)CCn2nc(-c3ccccc3)c3ccccc3c2=O)CC1
  >57	17.9%
CC1=CC(=O)C2=C(C)C[C@@H](O)[C@@H]3[C@@H](OC(=O)[C@H]3C)[C@H]12
  >57	-9.7%[3.58 µM]
Cc1cc2ncn(C(=O)c3ccc4c(c3)OCO4)c2cc1C
  >57	5.0%
Cn1c(=O)c2c(O)cc(=O)n(-c3ccccc3)c2n(C)c1=O
  >57	17.5%
Cc1ccc(-n2c(CSc3nc(C)cc(C)n3)nnc2SCC(=O)Nc2nccs2)cc1
  >57	1.3%

Continued:
The line under a structure holds: Prx2 Sm inh	LT uptake inh
Cc1ccc(C)c(N2CCN(C(=O)c3cc4sccc4n3C)CC2)c1
  >57	?
O=C(COC(=O)CCc1ccc(S(=O)(=O)N2CCOCC2)cc1)Nc1ccc(Cl)cn1
  >57	5.4%
O=c1[nH]c(N2CCCCC2)nc2c1CCCC2
  >57	-7.6%
O=C(OC1CCCCC1)c1ccc(NC(=O)c2ccco2)cc1
  /	?
O=C(CCCc1ccccc1)NCc1cccnc1
  /	-5.2%
CN(C(=O)c1ccno1)c1nnc(-c2cnccn2)s1
  >57	-17.5%
Cc1ccc2c(CN3CCN(S(=O)(=O)c4ccc5c(c4)OCCO5)CC3)cc(=O)oc2c1C
  >57	-14.8%
CC(C)(C)NC(=O)C(c1ccco1)N(C(=O)Cn1nnc(-c2ccc(F)cc2)n1)c1cccc(F)c1 (centres undefined)
  >57	-8.7%
Clc1ccccc1-c1cc(NCc2ccccc2)ncn1
  >57	9.6%
COc1ccc(C(c2nnnn2CC2CCCO2)N2CCN(c3ccccc3)CC2)cc1 (centres undefined)
  >57	-20.3%
Cc1cc(C(=O)Nc2sc3c(c2C#N)CCCC3)no1
  >57	-11.0%
COCc1cc(C)n(CC(=O)Nc2ccccc2OC)c(=O)c1C#N
  >57	-5.4%
CCN(CC)C(=O)COc1ccc(-c2ccccc2)cc1
  /	-10.8%
Fc1ccc(-c2nc3n(c2-c2ccncc2)CCS3)cc1
  /	?
O=C(Cc1coc2ccc3ccccc3c12)N1CCN(c2ncccn2)CC1
  >57	4.0%
CCc1nc2ccccc2n1Cc1cc(=O)n2cc(C)ccc2n1
  >57	7.4%
Cc1nc2nc(COc3ccccc3)[nH]n2c(=O)c1Cl
  >57	-5.1%
CC(C)(C)n1ncc2c(=O)n(CC(=O)NCc3ccco3)cnc21
  >57	-8.2%
O=C(NCCN1CCOCC1)c1ccccc1Oc1ccccc1
  >57	2.9%
COc1ccc(N2CCCn3c2nc2c3c(=O)n(CCN3CCOCC3)c(=O)n2C)cc1
  >57	-12.1%
CCc1nc2sc3ccccc3c(=O)c2c(=O)n1Cc1ccco1
  >57	-3.2%
CCOCCc1nnc(NC(=O)CN2C(=O)c3ccccc3C2=O)s1
  >57	3.4%
O=S(=O)(NCC1CCCO1)c1ccc(Br)s1 (centres undefined)
  >57	-8.4%
CCc1cccc(NS(=O)(=O)c2ccc3c(c2)oc(=O)n3C)c1
  >57	9.4%
CCC(=O)c1ccc(OCC(=O)O)cc1
  >57	5.1%
CCOC(=O)c1cc2c(=O)n3cccc(C)c3nc2n(Cc2ccco2)c1=NC(=O)c1cccnc1
  >57	?
COc1cc(NC(=O)C2CCCO2)c(OC)cc1NC(=O)c1ccccc1 (centres undefined)
  >57	/
CN(C)S(=O)(=O)c1ccccc1C#N
  >57	-1.6%
O=C(/C=C/c1c(C(=O)O)[nH]c2cc(Cl)cc(Cl)c12)Nc1ccccc1
  /	8.0%
O=C(CCc1ccccc1)Nc1ncc2c(n1)CCCC2=O
  >57	?

3 structures already listed, ordered by length of the SMILES, lowest first.
The line under a structure holds: Prx2 Sm inh	LT uptake inh
CCC(=O)c1ccc(OCC(=O)O)cc1
  >57	5.1%
Fc1ccc(-c2nc3n(c2-c2ccncc2)CCS3)cc1
  /	?
Cc1ccc(C)c(N2CCN(C(=O)c3cc4sccc4n3C)CC2)c1
  >57	?

Next section.
The line under a structure holds: Prx2 Sm inh	LT uptake inh
CCCC(=O)Nc1nnc(-c2cccc(OCC)c2)s1
  >57	?
O=C(Nc1cc(C(F)(F)F)ccc1Cl)c1cc(C2CC2)on1
  >57	-8.2%
C1CCC(NC2CCCCC2)CC1
  /	0.1%&-3.9%
O=C(O)Cn1c(-c2ccccc2)nc2ccccc21
  >57	-2.5%
CCCCOc1ccc(NC(=O)c2cnc(C)cn2)cc1
  >57	-8.1%
CCN1C(=O)c2cccc3c(NC(=O)C4CCCCC4)ccc1c23
  >57	-11.6%
Cc1ccc2nc(SCc3nnc(-c4cccs4)o3)[nH]c2c1
  >57	-1.8%
COC1(OC)N=C(N)C2(C#N)C(c3ccc4c(c3)OCO4)C12C#N (centres undefined)
  >57	-1.8%
CCCn1c(=O)c2ccccc2n2c(SCC(=O)Nc3cc(C)on3)nnc12
  >57	0.8%
CCC/C=C(\CCC)C(NS(=O)(=O)c1cccs1)c1ccc(C(=O)OC)cc1 (centres undefined)
  >57	?
Cc1cccc2cc3c(NC(=O)c4ccccn4)nn(C)c3nc12
  >57	-4.4%
CC(C)NC(=O)N1CC[C@@]2(CCCN(C(=O)c3ccco3)C2)C1
  >57	4.4%
O=C(c1ccco1)N1CCN=C1SCc1cccc(F)c1
  >57	-4.9%
COC(=O)c1cc(-c2cccc(OC)c2)n[nH]1
  >57	-3.3%
O=C(c1ccncc1)N1CCC2(CC1)CCN(c1ccncc1)CC2
  >11.4	?
CCn1c(SCC(=O)NCCOC)nc2sc(C)c(C)c2c1=O
  >57	11.1%
O=C(NCCc1ccccc1)c1cc(-c2ccc3c(c2)OCO3)on1
  >57	4.8%
O=C1NCCCc2c1oc1cc(Br)c(O)c(Br)c21
  >57	-1.9%
O=C(CSc1nnc(-c2cccs2)o1)N1CCOCC1
  >57	-4.7%
O=C(NCc1nc(-c2ccccc2)no1)c1ccc2c(c1)OCO2
  >57	17.1%
COC(=O)c1ccccc1NC(=O)COC(=O)CSCC(=O)N1CCOCC1
  >57	4.8%
COc1cc(OC)c(C2N(c3ccccn3)C(=O)C3CCCN32)cc1OC (centres undefined)
  >57	-7.3%
Cc1cccc(C(C)C)c1NC(=O)c1cccnc1
  >57	0.4%
O=C(NCc1nc(-c2ccccc2)no1)c1cccs1
  >57	0.8%
Cc1cccc(C)c1OCc1nnc(SCC(=O)NCCc2ccccc2)o1
  >57	/
Cc1noc(C)c1S(=O)(=O)N1CCCC(C(=O)NCCc2ccc(Cl)cc2)C1 (centres undefined)
  >57	?
CN1CCc2c(sc3c2c(=O)n(-c2ccccc2)c2nnc(SCc4ccc(Cl)cc4)n32)C1
  >57	/
COc1ccccc1NC(=O)CSc1nnc(CNC(=O)COc2ccc(Cl)cc2)o1
  >57	-8.0%
O[C@H]1CCCC[C@H]1N1CCC(c2ccccc2)CC1
  >25.6&>57	?
CCOC(=O)c1c(C)oc2ccc(OCC(N)=O)cc12
  >57	0.9%
O=[N+]([O-])c1cccc2cn[nH]c12
  >57&>57	-13.5%&3.1%
CCNC(=O)COC(=O)COc1ccc(Cl)cc1C
  >57	-10.7%
COCCN1CC(O)=C(c2nc3ccccc3c(=O)[nH]2)C1=N
  >57	9.5%
